Bioassay records (PubChem BioAssay)
LANA-H2A inh: blocks KSHV LANA binding to histone H2A/H2B; AID 2629; cell-free LANA-H2A/H2B peptide, fluorescence polarization; inhibition, % (no concentration beside the values); Q9QR71; hit rate 0.6% among 320,000; in the data active = inhibition mostly above about 10%, no sharp cut-off; inactive = mostly below about 6.7%;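 note: stock transfer was 7.5 nL into about 10 µL; 0% = median of vehicle wells and 100% = median of positive control wells; one replicate is shown; the record names a cut of 25% in any replicate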
E coli growth: E. coli growth inhibition; Escherichia coli growth, OD600, 23 h; stronger effect = lower value; OD600 absorbance (test concentration not listed); hit rate 0.21% among 330,000;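 active = OD600 absorbance below the run mean of sample wells minus 3.6 SD, in any replicate, cut at about 0.56 in these data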;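 note: stock transfer was 300 nL into about 60 µL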
HNF4A DNA FP: change in binding of human HNF4 alpha to DNA; P41235; HNF4a-FITC DNA binding, fluorescence polarization, 1 h; activity change, % at 10 µM; hit rate 0.3% among 360,000; AID 1224865; in the data active = activity change above about 30%, passing the limit was not always enough;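 note: controls were the assay level and a saturating level of protein; the project sought stronger binding though the title names inhibitors; some compounds called inactive have numbers as strong as hits; positive values seem to mean higher polarization but the record does not say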
Target sequence (P41235 whole entry, looked up): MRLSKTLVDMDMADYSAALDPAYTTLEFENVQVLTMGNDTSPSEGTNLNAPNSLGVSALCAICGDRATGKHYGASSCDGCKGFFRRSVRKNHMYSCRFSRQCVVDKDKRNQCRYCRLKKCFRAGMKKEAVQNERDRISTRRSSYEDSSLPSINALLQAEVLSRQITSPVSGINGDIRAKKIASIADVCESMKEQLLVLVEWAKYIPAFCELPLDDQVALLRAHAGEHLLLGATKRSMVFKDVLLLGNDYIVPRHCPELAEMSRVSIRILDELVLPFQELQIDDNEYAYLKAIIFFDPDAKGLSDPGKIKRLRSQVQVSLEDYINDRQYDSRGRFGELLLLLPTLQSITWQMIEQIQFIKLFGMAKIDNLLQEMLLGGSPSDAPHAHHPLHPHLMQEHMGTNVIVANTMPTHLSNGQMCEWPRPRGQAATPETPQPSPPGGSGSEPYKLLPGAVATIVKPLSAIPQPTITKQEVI
FGF22 binding: FGF22 (human) thermal shift binding; hit rate 1.5% among 340,000; recombinant FGF22 thermal shift, SYPRO orange fluorescence; percent of sucrose octasulfate shift, DMSO zero; calls only at 9.99 µM;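 active = melting point raised past a set limit in the mean and every replicate; three in four hits are not shown here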
Target sequence (Q9HCT0 whole entry, looked up): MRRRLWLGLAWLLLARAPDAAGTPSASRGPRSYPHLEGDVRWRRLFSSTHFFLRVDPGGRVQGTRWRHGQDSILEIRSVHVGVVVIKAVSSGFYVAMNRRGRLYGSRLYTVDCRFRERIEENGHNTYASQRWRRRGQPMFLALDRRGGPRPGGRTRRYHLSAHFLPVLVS
UCH37 inh: blocks the human deubiquitinase UCH37 | Q9Y5K5 | purified proteasome/UCH37, Ub-AMC cleavage fluorescence | inhibition, % (no concentration beside the values) | hit rate 0.33% among 330,000 | AID 588478;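 active = mean of two replicates above 20%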;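 note: 0% = compound-free wells with enzyme and 100% = wells lacking proteasome; stock transfer was 100 nL into about 20 µL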
Target sequence (Q9Y5K5 whole entry, looked up): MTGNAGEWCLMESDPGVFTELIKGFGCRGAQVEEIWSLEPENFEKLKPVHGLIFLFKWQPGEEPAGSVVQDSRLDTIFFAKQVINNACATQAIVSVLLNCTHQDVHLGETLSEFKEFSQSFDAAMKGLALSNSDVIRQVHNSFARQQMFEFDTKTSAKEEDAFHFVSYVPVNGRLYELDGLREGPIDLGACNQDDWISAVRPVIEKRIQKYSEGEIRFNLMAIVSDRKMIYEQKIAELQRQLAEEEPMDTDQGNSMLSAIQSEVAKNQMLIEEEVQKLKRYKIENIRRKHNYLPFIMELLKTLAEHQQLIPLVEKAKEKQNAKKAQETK
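assay system = human UCH37 enzyme supplied as purified proteasome complex | amount = proteasome at 0.15 nM in the dispensed enzyme solution | schedule = 30 min compound-proteasome preincubation then 25 min substrate reaction, room temperature | measured by = fluorescence, ex 355 nm, em 460 nm | benchmarks = no-proteasome wells (full inhibition) and compound-free wells (no inhibition)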
B2AR ag: activates human beta-2 adrenergic receptor causing internalization; P07550; response, % (test concentration not listed); AID 504454; Am2.2-beta2AR cells, FAP receptor internalization, flow cytometry; reference of the scale not given here; hit rate 0.43% among 340,000;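 active = response above a set limit, near 3 SD of response in nonfluorescent compounds, cut at about 42% in these data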;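 note: stock transfer was 100 nL into about 11 µL; a reference agonist was the positive control; negative values mostly stem from fluorescent compounds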
ALR H2O2 inh: human ALR oxidase inhibition via reduced H2O2; hit rate 3.8% among 290,000; P55789; inhibition, % (concentration not given with the values); purified ALR, DTT oxidation, H2O2 HRP-luminol luminescence;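 active = mean and each replicate at 75% or more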;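 note: stock transfer was 7.5 nL into about 7.5 µL; 0% = neutral wells and 100% = wells with inactivated enzyme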
The depositor's hits bear a star; i = inactive; x = not tested or not shown. A portion of the library (hit frequency here may not be typical).

Results follow in this order: LANA-H2A inh	E coli growth	HNF4A DNA FP	FGF22 binding	UCH37 inh	B2AR ag	ALR H2O2 inh
Cc1cc(C)n(-c2ncc3c(n2)N(C)CCOC3=O)n1
→ -2.0	0.7	4.2	i	-6.2	2	-6
CCc1ccc(NC(=O)CSc2nnnn2C)cc1
→ -1.0	0.7	2.1	i	6.4	-4	-9
COC(Cc1n[nH]c(=S)n1-c1ccccc1)OC
→ -1.0	0.65	1.8	x	3.4	-6	93*
C=CCn1c(C(CC)CC)nc2ccccc21
→ 2.9	0.67	0.6	i	5.9	6	1
CC(=O)Nc1ccc(SCC(=O)Nc2oc(C)c3c(C)n[nH]c(=O)c23)cc1
→ 5.0	0.61	0.1	i	3.4	1	99*
CC1(C)CC(=O)C2=C(C1)N1CCCCC1CC2=O (stereo unspecified)
→ 1.8	0.65	-2.5	x	1.4	-2	-2
Cc1cccc(OCC(=O)N(Cc2ccco2)C2CCS(=O)(=O)C2)c1 (stereo unspecified)
→ -3.1	0.68	3.3	i	4.5	2	-12
COc1ccc(/C(O)=C2/C(=O)C(=O)N(CCN(C)C)C2c2cccnc2)cc1OC (stereo unspecified)
→ 0.1	0.7	0.2	i	9.8	-13	-5
CCOc1cc2c(cc1OCC)C(c1ccc(OC)c(OC)c1)N(c1ccc(C(=O)O)cc1)C(=O)C2 (stereo unspecified)
→ 4.2	0.72	2.4	x	2.9	-15	-11
CC1(C)Cc2nc(Cl)c(C#N)cc2CO1
→ -5.6	0.69	2.6	i	0.1	-7	-15
O=S(O)OC1CS(=O)(=O)CC1c1ccccc1 (stereo unspecified)
→ 2.0	0.71	2.8	i	1.3	-2	0
O=[N+]([O-])c1ccccc1Oc1ccc(Cl)c2cccnc12
→ -3.5	0.71	-0.1	i	5.8	0	-18
CC1=CC(C)C(C(=O)O)C(C(=O)Nc2cccnc2)C1 (stereo unspecified)
→ 4.9	0.67	2.4	i	0.6	4	-4
CCCCCC(C)n1[nH]c(=O)cc1N (stereo unspecified)
→ 4.3	0.71	1.8	x	1.6	-2	28
NC(=O)CSc1ccc(Br)cc1
→ -0.4	0.65	0.2	x	1.9	1	x
CCC(C)(C)n1nnnc1C(C(C)C)N(Cc1cccnc1)Cc1ccco1 (stereo unspecified)
→ -3.6	0.64	-2.2	i	4.6	7	-1
CCOc1ncccc1C(=O)NNC(=O)CSc1ccc(Cl)cc1
→ -3.0	0.69	1.9	i	0.4	5	x
CN(C)CCCNc1ncnc2sc(-c3ccccc3)cc12
→ -3.0	0.65	-1.5	i	-28	6	x
C=C(C)n1c(=O)[nH]c2ccccc21
→ 0.8	0.68	4.1	x	0.6	-7	-10
CCC(C)NC(=O)c1n[nH]c(=O)c2ccccc12 (stereo unspecified)
→ 2.5	0.67	-1.5	x	-1.6	3	x
O=C(CCc1nnc(Cc2ccc3c(c2)OCO3)o1)N(CC1CCC1)CC1CCCO1 (stereo unspecified)
→ 2.3	0.69	-2.2	i	2.9	-6	x
CC1CCN(C(=O)CCN2C(=O)/C(=C/c3cccs3)SC2=S)CC1
→ -4.2	0.66	4.2	i	6.4	-3	-17
O=C(c1cnc2nc3ccccc3n2c1)c1cc(F)ccc1O
→ 5.0	0.7	17	i	-11	7	-4
COC(=O)c1ccccc1NC(=O)Cn1cnc2c1c(=O)n(C)c(=O)n2C
→ -5.0	0.64	23	i	2.2	2	x
CCCc1ccc(OCCNC(=O)c2ccccc2Br)cc1
→ 2.0	0.66	4.4	i	3.4	1	0
O=C(Cn1cc(C(=O)C2CC2)c2ccccc21)Nc1ccccc1Cl
→ 1.0	0.65	1.1	i	2.6	8	3
COc1ccc(Cl)cc1NC(=S)Nc1cccc(C)c1
→ 2.4	0.63	-0.1	i	1.3	2	0
COc1cccc(NC(=O)CCCCCN2C(=O)[C@@H]3Cc4ccccc4CN3C2=O)c1
→ -1.0	0.63	0.1	i	0.7	-8	-7
Oc1ccc(-c2cccc(-c3ccc(O)cc3)n2)cc1
→ -3.0	0.66	-2.1	x	-0.5	6	26
O=C(CC1C(=O)NCCN1Cc1cccc(Oc2ccccc2)c1)NCCCn1cccn1 (stereo unspecified)
→ 0.7	0.68	2.2	x	4.5	-7	-1
COc1ccc(S(=O)(=O)NC(CCSC)C(=O)NC2CCCCC2)cc1 (stereo unspecified)
→ 2.9	0.67	1.3	i	-1.3	3	-3
CN1C[C@@H]2C(c3ccc(Cl)nc3)C3(c4cccnc4)CC2(C3)[C@H]1c1ccccc1 (stereo partly specified)
→ -1.1	x	4.6	i	0.3	-6	32
CCN(C(=O)COC(=O)c1cc(-c2ccccc2)nc2ccc(Br)cc12)C1CCS(=O)(=O)C1 (stereo unspecified)
→ -1.6	0.7	-3.0	i	0.7	13	1
C=CCn1c(C)cc(-c2csc(N)n2)c1C
→ -2.0	0.77	0.4	x	3.8	3	-2
Cc1ccc(NC(=O)CS(=O)CC(=O)Nc2ccc3c(c2)OCO3)cc1Cl (stereo unspecified)
→ -1.3	0.69	2.8	x	2.3	5	-7
Clc1ccccc1Cn1nnc2c(N3CCCC3)ncnc21
→ 8.4	0.67	1.4	x	3.7	-13	-3
CSCCC(NC(=O)C12CC3CC(CC(C3)C1)C2)C(=O)OCC(=O)c1ccccc1 (stereo unspecified)
→ 0.8	0.76	-1.7	i	2.5	5	-8
COCc1c(C(=O)OCC(=O)N2CCCC2=O)oc2ccccc12
→ -4.7	x	0.0	i	x	-5	-2
O=C(CCC(=O)N1CCN(C(=O)c2ccco2)CC1)c1ccc(F)cc1
→ 4.4	0.73	0.8	i	-0.6	6	2
CCC1(C)C(Nc2c(C)cccc2C)=NC(=S)N1c1ccc(NC(C)=O)cc1 (stereo unspecified)
→ x	0.63	-3.4	x	3.7	12	x
CCCCC[C@@H](O)c1cc2ccccc2c(=O)o1
→ -1.4	x	3.8	i	2.7	-7	4
COc1cc(CCC(=O)OCC(=O)Nc2ccccc2OC(F)F)cc(OC)c1OC
→ 2.5	0.72	0.9	i	0.0	1	-4
C[C@H](CO)N1C[C@H](C)[C@@H](CN(C)S(C)(=O)=O)Oc2c(NC(=O)Cc3ccccc3)cccc2C1=O
→ 6.7	x	0.8	i	-1.9	2	0
O=C(Cc1ccc(NC(=O)C2CCCN(C(=O)C3CCCCC3)C2)cc1)Nc1ccc(C(=O)N2CCOCC2)cc1 (stereo unspecified)
→ x	0.7	3.3	x	0.3	3	x
CCCc1[nH]n(-c2ccc([N+](=O)[O-])cc2)c(=O)c1C=NCCc1ccc(OC)c(OC)c1
→ 2.1	0.65	2.9	i	9.7	15	-1
CCCc1ccc(-c2c(C)sc(N)c2C#N)cc1
→ -2.4	0.73	1.7	x	2.5	-8	92*
COc1cccc(CC2(CO)CCN(S(=O)(=O)N(C)C)CC2)c1
→ 1.6	0.66	0.0	i	2.9	2	3
NC(=O)c1ccccc1Nc1nc(NCCO)nc(N2CCCC2)n1
→ -1.1	0.67	-0.9	i	-5.7	-11	5
COC(=O)c1cccc(NC(=O)/C=C/c2cccc([N+](=O)[O-])c2)c1
→ 7.7	0.71	1.0	i	-2.0	4	0
O=c1[nH]c2cc(S(=O)(=O)CCO)ccc2o1
→ -9.5	0.68	-2.7	i	2.5	-6	-12

Record cards, as listed above. Order of screens: LANA-H2A inh, E coli growth, HNF4A DNA FP, FGF22 binding, UCH37 inh, B2AR ag, ALR H2O2 inh
Record of `COc1cc(CCC(=O)OCC(=O)Nc2ccccc2OC(F)F)cc(OC)c1OC` = 2.5, 0.72, 0.9, i, 0.0, 1, -4
Record of `CCCCC[C@@H](O)c1cc2ccccc2c(=O)o1` = -1.4, x, 3.8, i, 2.7, -7, 4
Record of `COc1cccc(CC2(CO)CCN(S(=O)(=O)N(C)C)CC2)c1` = 1.6, 0.66, 0.0, i, 2.9, 2, 3
Record of `O=c1[nH]c2cc(S(=O)(=O)CCO)ccc2o1` = -9.5, 0.68, -2.7, i, 2.5, -6, -12
Record of `O=C(Cc1ccc(NC(=O)C2CCCN(C(=O)C3CCCCC3)C2)cc1)Nc1ccc(C(=O)N2CCOCC2)cc1` (stereo unspecified) = x, 0.7, 3.3, x, 0.3, 3, x

(continued)
Results follow in this order: LANA-H2A inh	E coli growth	HNF4A DNA FP	FGF22 binding	UCH37 inh	B2AR ag	ALR H2O2 inh
N#CC1=C2SCN(Cc3ccco3)CN2C(=O)CC1c1ccc(Cl)cc1 (stereo unspecified)
→ 2.1	0.68	6.5	x	6.7	-2	-7
O=C(NN(C(=O)c1ccccc1)c1ccccc1)c1ccccc1
→ 1.2	0.68	-11	i	1.9	-8	3
CC(C)(CO)CNC(=O)CCc1nnc(Cc2ccc(-c3ccccc3)cc2)o1
→ -4.3	0.68	-0.7	x	2.5	-2	-2
CCn1cc(S(=O)(=O)Nc2ccc(C)c(Cl)c2)cn1
→ 1.7	0.73	-5.5	i	-1.1	-4	-3
Cc1ccc(S(=O)(=O)N2CCC(=O)N(C(COCc3cccc(Cl)c3)C(C)C)CC2)cc1 (stereo unspecified)
→ 0.5	0.7	-2.7	i	1.8	-3	-2
Cc1cccc(NC(=O)c2ccccc2OCC(=O)N2CCOCC2)c1C
→ 0.3	0.67	5.3	i	0.9	-8	-5
Cc1c(N(C(=O)Nc2ccccc2)C2=NCC(C)S2)c(=O)n(-c2ccccc2)n1C (stereo unspecified)
→ -3.7	0.77	-4.8	x	-1.7	-10	7
CN(Cc1ccccc1C#N)S(=O)(=O)c1cccs1
→ -0.5	0.7	2.4	i	1.6	5	-3
O=c1cc(-c2cccnc2)oc2c1ccc1ccccc12
→ 3.8	x	2.7	i	x	-3	-4
CCCC1=C(C(=O)OCC)C(c2cccs2)C(C#N)=C(N)O1 (stereo unspecified)
→ -3.0	0.63	-2.8	x	-1.0	0	-8
O=C(CC12CC3CC(CC(C3)C1)C2)N1CCOCC1
→ -3.9	0.75	2.3	x	-0.6	1	-14
CCN(CCCNC(=O)CNC(=O)Cn1cnc2ccccc2c1=O)c1ccccc1
→ 4.2	0.73	0.6	x	4.6	0	98*
Cc1cc(-c2nc3ccccc3o2)c2ccccc2n1
→ -2.5	0.7	1.1	x	-70	2	12
COc1cccc(C(=O)Nc2cccc(OCC(=O)O)c2)c1
→ -0.3	0.66	0.6	x	1.5	-2	-6
O=C(CCN1CCN(C(c2ccccc2)c2ccccc2)CC1)N/N=C/c1ccc(O)cc1O
→ 0.4	x	1.6	x	x	11	29
Cc1cc(NC(=O)C(C)SCC(=O)OCc2c(Cl)cccc2Cl)no1 (stereo unspecified)
→ 2.1	0.73	2.1	i	3.0	0	0
CC(C)=NOc1nc(N2CCOCC2)nc(N2CCOCC2)n1
→ -1.9	0.68	8.4	i	1.0	-4	-6
COc1cc(C#N)c(N=C(SCC#N)N2CCOCC2)cc1OC
→ 1.4	0.69	-1.3	i	5.7	6	98*
CCOC(=O)Cc1csc(NS(=O)(=O)c2ccc3c4c(cccc24)C(=O)N3CC)n1
→ -3.5	0.72	-5.7	x	1.6	-9	-19
COc1ccccc1NC(=O)Cn1cnc2sc(C(=O)NCc3ccco3)c(C)c2c1=O
→ 4.6	0.78	8.3	x	1.0	-18	x
O=C(Nc1cccnc1)c1ccc(Oc2ccccc2)cc1
→ 0.7	0.62	2.4	x	4.0	-23	-21
CSCCC(NC(=O)c1ccco1)C(=O)N1CCN(Cc2ccccc2)CC1 (stereo unspecified)
→ 2.6	0.69	-2.0	i	0.3	4	3
Cc1ccccc1C(=O)NCC(=O)OCCOc1ccc(C(C)C)c(C)c1
→ -0.7	0.62	0.8	i	2.1	-3	4

Gathered by group, the compounds so far containing a nitro group on carbon (three)
Results follow in this order: LANA-H2A inh	E coli growth	HNF4A DNA FP	FGF22 binding	UCH37 inh	B2AR ag	ALR H2O2 inh
O=[N+]([O-])c1ccccc1Oc1ccc(Cl)c2cccnc12
→ -3.5	0.71	-0.1	i	5.8	0	-18
CCCc1[nH]n(-c2ccc([N+](=O)[O-])cc2)c(=O)c1C=NCCc1ccc(OC)c(OC)c1
→ 2.1	0.65	2.9	i	9.7	15	-1
COC(=O)c1cccc(NC(=O)/C=C/c2cccc([N+](=O)[O-])c2)c1
→ 7.7	0.71	1.0	i	-2.0	4	0
